# Compound activity: PubChem, Center for Chemical Genomics, University of Michigan
# HIV TAR-Tat: TAR RNA-Tat peptide displacers, HIV-1, primary screen, biochemical, FRET, FAM/TAMRA-labeled Tat. 100,000 compounds, 0.6% hits. AID 1259389, 2018. z-score (concentration not given with the values). HIV-1 TAR RNA, Tat peptide displacement FRET; hits give high values;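 note: score is relative to mean and SD of negative controls; some compounds called inactive have numbers as strong as hits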
# CDC25B-CDK2 inh: primary biochemical HTRF screen for blockers of M-phase inducer phosphatase 2 binding to CDK2/cyclin A | AID 1259370, 2018 | HTRF CDC25B-CDK2/CyclinA binding, anti-His/anti-Flag; hits give high values | z-score (concentration not given with the values) | 94,000 compounds, 0.72% hits;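 note: score is relative to mean and SD of negative controls; strong numbers were not always called active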
# Active calls of the source: *; · = not tested or not shown.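 Rule for the calls: active = z-score from 3 up in half or more of its runs; inactive = the rest.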
SMILES,HIV TAR-Tat,CDC25B-CDK2 inh
COc1ccc2c(c1)c(N1CCCC1=O)c(C(=O)NCc1cccs1)n2C,0.82,·
CSc1ncc2c(=O)n(CC(=O)N(C)c3ccc(F)cc3)cnc2n1,0.97,·
CCCOc1ccc(C2C3=C(CC(C)(C)CC3=O)Nc3cc4c(cc32)OCO4)cc1 (configuration not stated),0.28,-8.8
CCCCCNC(=O)Cc1ccc(NC2=NC3CS(=O)(=O)CC3S2)cc1 (configuration not stated),·,-2
Cc1ccc(-c2onc3ccc(C(=O)NC4CC4)cc23)cc1,0.29,·
Cc1occ(-c2cc(F)ccc2Cl)c1C(=O)NC1Cc2ccccc2C1,·,-0.84
CCC(=O)N1c2ccc(S(=O)(=O)N3CCCCC3)cc2CC1C(=O)N1CCCC1 (configuration not stated),1.6,·
O=C(Cn1c(=O)c2cccn2c2cccnc21)NCCCN1CCCC1=O,-0.3,·
Cn1c(SCC(=O)NCc2ccccn2)nc2sc3c(c2c1=O)CCCC3,·,-1.8
Cc1nc(CC(=O)Nc2nc3cc(C)c(C)cc3s2)cs1,1.4,-2.4
O=C(CSc1ccc(-c2cccs2)nn1)Nc1ccccc1,1.7,·
CCOC(=O)C(C)Oc1ccc2c(=O)c(Oc3cccc(C)c3)coc2c1 (configuration not stated),1.8,-1.6
Cc1cc([N+](=O)[O-])ccc1NS(=O)(=O)c1cc(Cl)ccc1Cl,-0.47,·
O=C1C(=O)N(CCCN2CCOCC2)C(c2cccs2)/C1=C(\O)c1ccc(Cl)cc1 (configuration not stated),0.07,-2
O=C(C1CCCN(S(=O)(=O)c2cccs2)C1)N1CCn2c1cc1ccccc12 (configuration not stated),·,-1.2
N#C/C(=C\c1ccc[nH]1)c1nn(-c2ccccc2)c(-n2cccc2)c1C#N,·,0.12
Cc1nn(CC(=O)NC2CCCc3ccccc32)c(=O)c2cc3sccc3n12 (configuration not stated),0.99,-1.6
COC(=O)C1=C(C(=O)OC)SC(=C2C(=S)C(C)(C)Nc3ccc(C)cc32)S1,1.6,18*
Cc1ccc(S(=O)(=O)N/N=C/C(=O)O)cc1,·,0.77
COc1cc(C2=NN(C(C)=O)C(C)(C)O2)cc(OC)c1OC,·,-0.45
Cc1nc(-c2ccc(C)c(S(=O)(=O)NCc3ccc4c(c3)OCO4)c2)cs1,0.68,·
Cc1ccc(CNc2nc(Nc3ccc(C)cc3)c3cnn(C)c3n2)cc1,0.88,·
CC(=O)N(CC1OC(c2ccc(Br)cc2)=NN1C(C)=O)c1cccc2ccccc12 (configuration not stated),0.54,·
Cc1ccc(S(=O)(=O)Nc2ncccc2OCc2cc(F)cc(F)c2)cc1,·,-1.9
S=c1[nH]c(-c2ccccc2)cn1-c1ccc(Br)cc1,·,-1.6
COc1ccc(C2C(C#N)=C(N)OC3=C2C(=O)CC(C)(C)C3)c(OC)c1OC (configuration not stated),·,-2.1
Cc1nc2ccccn2c1-c1ccnc(SCC(=O)Nc2ccc(C(F)(F)F)cc2)n1,·,-1.8
C[C@]12CCC3c4ccc(OS(=O)(=O)O)cc4CCC3C1CC[C@H]2O (some centres not stated),0.91,·
Cn1cc(S(=O)(=O)N2CCCC2)cc1C(=O)N1CCN(c2ccccc2F)CC1,2.4,·
COc1cc(-n2c(C)nc3cccnc32)c(Cl)cc1C(=O)O,1.9,-0.72
O=c1[nH]c2ccc(Cl)cc2c(-c2ccccc2)c1C1=NOC(c2ccccc2)C1 (configuration not stated),·,-0.34
COc1ccc(OC)c(CN2CCN(S(=O)(=O)c3ccc(Cl)cc3)CC2)c1,1.4,-1.2
Cc1ccc(-n2nnc(-c3nc(-c4cccnc4)no3)c2N)cc1C,-0.47,·
CCN(CC)C(=O)c1cc2c(s1)-c1ccccc1S(=O)(=O)C2,·,-10
Cc1ccc(OCCSc2nc(N)cc(N)n2)c(C(C)C)c1,1.1,1.8
Cc1cc(NC(=O)CS(=O)(=O)c2ccc3c(c2)S(=O)(=O)N=CN3)ccc1F,2,·
O=C(Nc1ccc2c(c1)OCO2)C1CCCN(S(=O)(=O)c2cccs2)C1 (configuration not stated),·,1
Cc1oc(C(=O)O)cc1COc1ccc2c3c(c(=O)oc2c1)CCCC3,·,-2
CN(C(=O)CN1Cc2ccccc2C1=O)c1ccccc1,-0.76,·
Cn1c(=O)[nH]c(=O)c2c1nc(SCCO)n2CC(O)COc1ccc(Cl)cc1 (configuration not stated),·,-3.1

# Given tab-delimited: 4 of the compounds above.
compound	HIV TAR-Tat	CDC25B-CDK2 inh
CCN(CC)C(=O)c1cc2c(s1)-c1ccccc1S(=O)(=O)C2	·	-10
Cc1ccc(OCCSc2nc(N)cc(N)n2)c(C(C)C)c1	1.1	1.8
Cc1cc(NC(=O)CS(=O)(=O)c2ccc3c(c2)S(=O)(=O)N=CN3)ccc1F	2	·
O=C(Nc1ccc2c(c1)OCO2)C1CCCN(S(=O)(=O)c2cccs2)C1 (configuration not stated)	·	1

# The list goes on.
SMILES,HIV TAR-Tat,CDC25B-CDK2 inh
Cc1ccc(S(=O)(=O)NCCc2csc3nc(-c4ccccc4)nn23)cc1C,2.4,·
CCc1nn(C(CC)C(=O)NCCCN2CC(C)CC(C)C2)c(=O)c2cc3oc(C)cc3n12 (configuration not stated),0.09,-1.7
N#CCCn1cc(C(F)(F)F)ccc1=O,·,-1
CCC(=O)N1CCc2cc(S(=O)(=O)CCC(=O)NCc3ccco3)ccc21,·,-2.3
Cc1cccc(CN2N=NC3C(=O)N(c4ccc(C)c(C)c4)C(=O)C32)c1 (configuration not stated),-1.8,-0.42
CCc1ccc(-c2ccc(=O)[nH]n2)cc1S(=O)(=O)N1CCc2ccccc2C1,0.61,·
O=C(NCc1ccc2c(c1)OCO2)c1ccc2c(=O)nc3c(-c4ccc(Cl)cc4)n[nH]n3c2c1,-8.2,·
C=CCN1C(=O)c2oc3cc(C)cc(C)c3c(=O)c2C1c1ccccc1F (configuration not stated),1.7,-2.1
O=C(O)C1(O[N+](=O)[O-])C2CC3CC(C2)CC1C3 (configuration not stated),·,-0.21
CCOC(=O)N1CCN(C(=O)c2cn(C)c3ccc(S(=O)(=O)N4CCCC4)cc3c2=O)CC1,1.7,-1.8
CCOc1ccc(-c2[nH]ncc2CN2CCCC2c2cc(C)on2)cc1 (configuration not stated),2.4,·
O=C(Cn1c(=O)oc2cc(Cl)ccc21)Nc1ccc(F)c(F)c1,1.4,·
Cc1cc(C)c2c(=O)nc(SCc3cc(=O)n4ccccc4n3)n(C3CC3)c2n1,-0.7,·
CCOC(=O)c1c(NC(=O)c2cc(-c3cccs3)on2)sc2c1CCC2,2.4,-2.1
Cc1cc(C(F)(F)F)nn1CC(=O)Nc1c(F)cc(F)cc1Br,·,-3.3
CN(C)CCN(Cc1ccco1)C(=O)Cn1c(=O)oc2ccccc21,-0.66,·
COc1ccc(-c2cc(C(=O)Nc3sc4c(c3C(=O)NCC3CCCO3)CCC4)no2)cc1 (configuration not stated),0.06,-1.4
COC(=O)C1=C(C(=O)OC)SC(=C2C(=S)C(C)(C)N(C(C)=O)c3ccc(C)cc32)S1,-8.3,-2.5
CC1CCN(c2c(-c3ccccc3)c(=O)c2=O)CC1,0.85,·
O=C1CCCN1c1ccc(CN2CC(=O)N(Cc3ccccc3)c3ccccc3S2(=O)=O)cc1,-1.2,-0.05
CCCCCOC(=O)C1=C(C)Nc2nnnn2C1c1ccc(SC)cc1 (configuration not stated),-0.98,-0.16
COc1cc(NS(=O)(=O)c2ccc3ccccc3c2)c2ncccc2c1,·,-1.2
COc1ccc(OC)c(NC2c3ccccc3C(=O)N2c2ccc(Cl)cn2)c1 (configuration not stated),1.7,1.5
COCCCNC(=O)C(=O)NCc1ccco1,-0.44,-2.2
COc1ccc(NC(=O)CSCc2cc(=O)n3nc(C4CC4)sc3n2)cc1,-0.69,·
COc1ccc(CSc2nnc3c4c5c(sc4ncn23)COC(C)(C)C5)cc1,2.2,-2.5
CCOC(=O)c1cnc(SC)nc1NC(=O)CSCc1csc2c1CCCC2,2.1,·
COc1cc(NC(=O)CS(=O)(=O)c2cccc3nsnc23)cc(OC)c1,0.73,·
CC1=C(c2ccc(C)cc2)S(=O)(=O)N=C1N1CCCc2ccccc21,-7.9,-1.6
Cc1cccc(-c2nn3c(C4COc5ccccc5O4)nnc3s2)c1 (configuration not stated),1.5,-0.47
Cc1cc(C)cc(NC(=O)CSc2nncn3c2cc2oc(C)cc23)c1,-0.3,·
COCc1cc(=O)[nH]c(COc2ccc(Cl)cc2)n1,·,-1.6
CCOC(=O)C1CCN(C2C(=O)c3ccccc3N2C(C)=O)CC1 (configuration not stated),1.4,·
CCOCCOC(=O)C(C)Oc1ccc2c(=O)c(Oc3cc(C)ccc3C)coc2c1 (configuration not stated),·,-1.1
CCOC(=O)c1sc2c(c1O)c(=O)n(-c1ccccc1)c(=S)n2-c1ccccc1,·,-1.3
Cc1ccc2oc(SCC(=O)Nc3cc(F)ccc3F)nc2n1,1.7,·
O=C(Oc1ccc2c(=O)c(Oc3ccccc3Br)coc2c1)c1ccco1,0.61,-0.52
CCCCS(=O)(=O)N1CCc2cc3ccccc3nc21,1.7,-1.4
CCOc1ccc2nc(NC(=O)c3nc(S(=O)(=O)CC)ncc3Cl)sc2c1,2.2,0.8
CC1=C(c2ccccc2)S(=O)(=O)NC1=NCCN1CCCCC1,0.28,0.47
CCc1cc2c(=O)c(Oc3ccccc3)c(C)oc2cc1O,·,0.39
COc1ccc(Nc2ncc3c(n2)CCN(Cc2ccc4c(c2)OCCO4)C3)c(OC)c1,1.4,·
CC1=C(C(=O)OC2CCCC2)C(c2ccccc2)C2=C(CCCC2=O)N1 (configuration not stated),·,-0.97
Cc1c(C(=O)NC2CCCC2)sc2nc3n(c(=O)c12)CCCC3,1.9,·
CCCCCCCn1c(CN2CC(C)CC(C)C2)nc2c1c(=O)n(C)c(=O)n2C (configuration not stated),0.13,0.17
Cc1ccc(CSc2nccc(=O)[nH]2)cc1,-1.1,-1.7
Cc1cc(OC(=O)c2c(C)cc(O)cc2O)cc(O)c1C(=O)O,1.9,·
COc1ccc(OC)c(C(=O)CN2C(=O)N(c3cccc(Cl)c3)S(=O)(=O)c3ccccc32)c1,1.7,·
Cn1c2ccccc2c2c(C(=O)Nc3ccc(F)cc3)cn(C3CCCC3)c(=O)c21,0.64,-0.75
CCn1c(=O)n(-c2ccccc2)c(=O)c2cc3c(nc21)CC(C)(C)OC3,0.26,-1.7
O=C(CSc1nnc(-c2cccnc2)o1)Nc1nccs1,0.97,-0.77
CN(C)C(CNC(=O)COc1ccc(Cl)cc1)c1ccco1 (configuration not stated),3.6,-2.3
CCn1c(C(=O)NC2CCCC2)cc2sc(Cl)cc21,·,-1.9
CCN1CCN(CCCNC(=O)c2ccc(N3CCOc4ccc(Cl)cc43)s2)CC1,0.84,·
O=C(Cn1cnc(S(=O)(=O)N2CCc3ccccc32)c1)N1CCC(c2ccccc2)C1 (configuration not stated),0.57,·
Cc1ccc(N2CCCS2(=O)=O)cc1NS(=O)(=O)c1ccc2c(c1)CCCC2,-0.07,·
O=C(Cn1c(=O)sc2ccccc21)Nc1nnc(SCC(=O)c2ccccc2)s1,0.08,-0.57
CNC(=O)NC(=O)CSc1nnc(-c2ccccc2)o1,·,-1.9
O=C(NCCc1nc2ccc(F)cc2[nH]1)c1[nH]nc2c1CCc1ccccc1-2,0.84,·
Cc1nc(CNC(=O)c2sc3ccccc3c2Cl)cs1,1.8,1.7

# 3 entries picked at random from the list so far, as already listed:
SMILES,HIV TAR-Tat,CDC25B-CDK2 inh
Cc1ccc(S(=O)(=O)NCCc2csc3nc(-c4ccccc4)nn23)cc1C,2.4,·
Cc1ccc(N2CCCS2(=O)=O)cc1NS(=O)(=O)c1ccc2c(c1)CCCC2,-0.07,·
COc1ccc(Nc2ncc3c(n2)CCN(Cc2ccc4c(c2)OCCO4)C3)c(OC)c1,1.4,·

# Other compounds follow:
SMILES,HIV TAR-Tat,CDC25B-CDK2 inh
O=C(C1CC(=O)N(c2cccc(F)c2)C1)N1CCN(c2ncnc3c2nnn3-c2ccccc2)CC1 (configuration not stated),0.38,·
O=S(=O)(NCc1ccccc1Cl)c1ccc(-c2cnc(C3CC3)o2)cc1,1.6,·
Cc1ccc(-c2csc3c2ncn2c(=O)n(CC(=O)NCCc4ccc(Cl)cc4)nc32)cc1,-0.14,·
CCn1c(=O)sc2cc(S(=O)(=O)N3CCC(C(=O)Nc4nccs4)CC3)ccc21,0.6,·
O=C(CSc1ccc2nnc(-c3cccc(F)c3)n2n1)NCc1ccco1,·,-2.4
Cc1ccsc1CN(C(=O)c1oc2cc(Br)ccc2c1C)C1CCS(=O)(=O)C1 (configuration not stated),0.01,0.11
Cc1ccc(S(=O)(=O)N2CCCC(c3nc(-c4cccc(Cl)c4)no3)C2)cc1 (configuration not stated),2.1,·
COc1ccc(C(C)C)cc1S(=O)(=O)n1ccnc1,1.6,-0.28
CC1CCCN(C(=O)Cn2cnc3c(nc4n3CCCCC4)c2=O)C1 (configuration not stated),1.2,·
COC(=O)COC(=O)c1cnn2c(C(F)(F)F)cc(-c3ccc(C)cc3)nc12,1.1,-0.3
Nc1ncnc2nc(SCc3nc4ccccc4c(=O)n3-c3cccc(C(F)(F)F)c3)[nH]c12,·,-2.7
O=C(O)C1C2C=CC3(O2)C1C(=O)N(Cc1ccccc1)C3Cc1ccccc1 (configuration not stated),·,0.19

# Single records, as listed above. Values in the order: HIV TAR-Tat | CDC25B-CDK2 inh
# Shown for Cc1ccc(S(=O)(=O)N2CCCC(c3nc(-c4cccc(Cl)c4)no3)C2)cc1 (configuration not stated) → 2.1 | ·
# Shown for Cc1ccc(-c2csc3c2ncn2c(=O)n(CC(=O)NCCc4ccc(Cl)cc4)nc32)cc1 → -0.14 | ·
# Shown for O=C(CSc1ccc2nnc(-c3cccc(F)c3)n2n1)NCc1ccco1 → · | -2.4
